Bioassay records (PubChem)
RmlCD inh mix = inhibitors of RmlC and RmlD coupled enzymes | RmlC/RmlD coupled enzyme inhibition, 384-well mixture HTS | inhibition, % at 5.5 µM | 110,000 compounds, 0.39% hits | AID 1532; in the data active = inhibition above about 30%, passing the limit was not always enough; only retested compounds are shown here; note: strong numbers were not always called active
RmlCD inh mix retest = recorded beside RmlCD inh mix, whose call it bears; inhibition, %; measured here: mean retest inhibition;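 single compounds in two wells; values far above 100% likely come from compound fluorescence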
An asterisk follows results filed as active. A portion of the library; count on the stated rates, not on these rows.

SMILES | RmlCD inh mix | RmlCD inh mix retest
COc1cc(C)nc(-n2nc(C)cc2OC)n1 | 57.1 | 4.3
